Assay outcomes as filed in PubChem.
NPYLR7 ag: activates Aedes aegypti NPYLR7 receptor. HEK293T NPYLR7/Galpha15, GCaMP6s calcium fluorescence. activation, % at 10 µM. hit rate 0.15% among 270,000. AID 1259423; in the data active means activation above about 40%;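 further: 0% = vehicle and 100% = reference agonist at the receptor; some compounds past the cut are filed as inactive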
NPYLR7 ag max-min: also measured in NPYLR7 ag; calls as there; activation, %; measured here: Max-Min RFU normalised activation; some inactives read as strong as hits;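 span of the calcium signal over five minutes; 0% = vehicle and 100% = native peptide agonist; compound fluorescence can raise it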
The depositor's hits bear a star; & = joins results of further samples. These rows are one share of the data; rates above refer to the full screens.

SMILES	NPYLR7 ag	NPYLR7 ag max-min
CCOC(=O)c1sc2nc(C)nc(SC(C)C(N)=O)c2c1C (configuration not stated)	5	15
c1cc(-c2nc3c(c(NC4COC5(CCCCC5)C4)n2)CNC3)ccn1 (configuration not stated)	29	14
COCCn1c(=O)[nH]c(=O)c2c3c(cnc21)C(=O)CC(c1ccc(Cl)cc1)C3 (configuration not stated)	0	30
CCOC(=O)C1CCCCN1C(=O)C1CCN(c2ncccn2)CC1 (configuration not stated)	11	7
COc1ccc(OC)c(CNC(=O)Nc2nc(C)n(C)n2)c1	6	4
Cc1ccc(CN2CCN(N=CC(Br)=Cc3ccccc3)CC2)c(C)c1	-4	-8
O=C(CN1CCN(S(=O)(=O)c2ccc(F)cc2F)CC1)Nc1ccc(N2CCCC2)cc1	6	1
COCc1cc(=O)n2[nH]c(-c3cccc(Br)c3)cc2n1	-4	-5
COc1ccc(S(=O)(=O)NC(=O)C2(C)CCN2C(=O)Cc2cc(F)ccc2F)cc1OC (configuration not stated)	2	3
Cc1cc(C)n(-c2cccc(CN(C)C(=O)Cc3ccccc3O)c2)n1	0	-1
c1cc2c(cc1-c1ccc3[nH]ncc3c1)OCCO2	0	0
CCCN(CC(=O)N1CC(=O)N(c2cccc(C)c2)C1)C(=O)c1ccc(Cl)c(Cl)c1	5	19

Reprinted at random: 7 entries already listed.
SMILES	NPYLR7 ag	NPYLR7 ag max-min
Cc1cc(C)n(-c2cccc(CN(C)C(=O)Cc3ccccc3O)c2)n1	0	-1
COc1ccc(S(=O)(=O)NC(=O)C2(C)CCN2C(=O)Cc2cc(F)ccc2F)cc1OC (configuration not stated)	2	3
COCCn1c(=O)[nH]c(=O)c2c3c(cnc21)C(=O)CC(c1ccc(Cl)cc1)C3 (configuration not stated)	0	30
COCc1cc(=O)n2[nH]c(-c3cccc(Br)c3)cc2n1	-4	-5
Cc1ccc(CN2CCN(N=CC(Br)=Cc3ccccc3)CC2)c(C)c1	-4	-8
CCOC(=O)c1sc2nc(C)nc(SC(C)C(N)=O)c2c1C (configuration not stated)	5	15
O=C(CN1CCN(S(=O)(=O)c2ccc(F)cc2F)CC1)Nc1ccc(N2CCCC2)cc1	6	1

(more compounds)
SMILES	NPYLR7 ag	NPYLR7 ag max-min
CNc1nc2cnc(-c3ccccc3C)cc2n1-c1cccc(F)c1	10	2
O=[N+]([O-])c1cccc(C2c3cccn3CCCN2Cc2cc([N+](=O)[O-])ccc2Cl)c1 (configuration not stated)	1	3
Cc1ccc(C(=O)N2CCC3(CC2)OCC(C(=O)N2CCCC2)N3C(=O)c2ccco2)cc1 (configuration not stated)	0	11
CCNC(=O)NC1CCN(c2ccccc2C(=O)NCCc2ccccc2)CC1	16	10
Cc1cc(C(=O)Nc2nnc(C3CC3)s2)c(C)n1C1CC1	-23	-25
FC(F)(F)c1cc(-c2ccco2)nc(NCc2ccco2)n1	-1	-1
Nc1nc(-c2ccc(Oc3ccccc3)cc2)cs1	-4	-3
COc1cccc(N2C(=O)CSC2c2cccc(NC(=O)CSc3ccccc3)c2)c1 (configuration not stated)	18	27
CCOc1cc2c(C#N)c(N(CC(C)C)CC(C)C)nc(N)c2c(N)n1	12	10
COC(=O)c1cc2n(n1)CCN(C(=O)c1nn3cc(C)cnc3c1Cl)C2	15	4
Cc1nc(C)c(C(=O)OCC(=O)c2cc(C)n(C3CC3)c2C)s1	-2	1
CC(C)C(C(=O)O)N1C(=O)C2C3c4ccccc4C(Br)(c4ccccc43)C2C1=O (configuration not stated)	-7	-9
COc1ccc(CCNC(=O)N2CCC(C(N)=O)CC2)c(OC)c1	5	16
O=C(Nc1ccccc1OC(F)F)C12CC3CC(CC(O)(C3)C1)C2	9	4
Cn1cnnc1SCC(=O)Nc1sc2c(c1C(N)=O)CCC2	0	-4
CCCCC1C(=O)N(C)CCN1Cc1ccc(O)c(O)c1 (configuration not stated)	-3	-1
CCOc1nc(-c2ccccc2F)n(-c2ccc(NC(=O)CCCCl)cc2)n1	8	20
O=C(NC1CC1)c1cc2c(s1)CS(=O)(=O)C2	5	3
C#CCN1CCCCC1C(=O)NN=C1N=NC(C)C(=O)N1 (configuration not stated)	3	10
O=C(c1cc2nc(-c3ccccc3)cc(C(F)(F)F)n2n1)N1CCCCC1	5	1
Cc1ccccc1-n1ncc2c(C(C)C)nn(Cc3ccccc3F)c(=O)c21	6	2
Cc1ccsc1[C@@H]1CCN(C(=O)c2cccc(=O)[nH]2)C[C@H]1O	0	-2
Cc1ccc(CNC(=O)c2nnn(CC(=O)Nc3ccc(C)cc3C)c2N)cc1	-8	-12
CCOC(=O)C1CCN(C(=O)CSc2nc3ccccc3c(=O)n2-c2ccc(C)c(C)c2)CC1	-2	-11
O=C(CC1=CCCCC1)N1CCc2c(sc3[nH]c(=O)n(Cc4ccccc4)c(=O)c23)C1	-11	-14
COc1ccc(-c2noc(CSc3nnc(-c4ccc5c(c4)OCO5)o3)n2)cc1OC	5	5
O=c1[nH]c(=O)n(CC2CCCO2)c2nccc(-c3cccc4ccccc34)c12 (configuration not stated)	-5	-12
CC(=O)OC(C(=O)N1CCC(c2cn(Cc3cccc(F)c3)c3ccccc23)CC1)c1ccccc1 (configuration not stated)	9	2
NC(=O)Cn1c(-c2nnco2)cc2ccccc21	-2	-2
Cc1ccc(CN(CCN2CCOCC2)CC(O)COCc2ccccc2)c(C)c1 (configuration not stated)	16	20
COc1ccc(-c2nc3c4ccccc4ccn3c2CN2CCCCC2)cc1	-8	-17
C=Cc1ccc(COC(=O)c2nnn(-c3ccc(OC)c(Cl)c3)c2C)cc1	-11	-10
CS(=O)(=O)N(CC(=O)NC1CCCCC1)c1ccc2c3c(cccc13)CC2	9	2
COc1ccc(-c2n[nH]c(C)c2-c2ccc3c(c2)OCCCO3)c(O)c1	-6	-7
CCOCCOc1nc(-c2cccc(F)c2)n(-c2ccc(NC(=O)c3cccc(Br)c3)cc2)n1	-2	0
COC(=O)c1cc(-c2cccs2)[nH]n1	15	13
COc1cccc(-c2cc(C(=O)N3CCN(C(=O)Nc4ccc(SC)cc4)CC3)c(C)n2-c2ccccc2F)c1	8	6
O=C(CSc1nc2c(cnn2CCO)c(=O)[nH]1)Nc1ccccc1F	5	4
C=CCn1c(=O)c2c(nc3n(-c4ccc(C)c(C)c4)c(C)cn23)n(C)c1=O	-1	-2
CCO[C@H]1COC[C@@H]1NC1CCN(C(=O)c2ccccc2)CC1	7	5
COc1cc(-c2ccnc(N3CCN(C(=O)c4cc(F)ccc4Cl)CC3)n2)cc(OC)c1OC	16	15
CCCc1cc(C(=O)OCC)nn1C1CCN(S(=O)(=O)c2cccs2)CC1	13	8
Cc1cc(CN(C)C(=O)c2csc3nc(-c4cccc(C(F)(F)F)c4)cn23)on1	2	1
Brc1ccc(Nc2c3c(nc4nncn24)CCC3)cc1	1	-2
c1ccc(OCCCSCc2nc3ccccc3[nH]2)cc1	6	1
FC(F)(F)C1CCCN(Cn2nc(Nc3ccccc3)sc2=S)C1 (configuration not stated)	3	21
C=CCn1c(=O)c2c(nc3n2CCN3c2cc(C)cc(C)c2)n(C)c1=O	20	11
CCn1nnc2c(SCc3ccc(C(F)(F)F)cc3)ncnc21	0	24
O=c1c(-c2ccc(F)cc2)coc2c3c(ccc12)OCCO3	7	26
CCc1cc(=O)[nH]c(-n2nc(C)cc2NC(=O)C(C)(C)Oc2ccc(Cl)cc2)n1	8	3
N#Cc1c[nH]c(=S)[nH]c1=O	3	-3
O=C(Cn1nnn(-c2cccs2)c1=O)Nc1ccc(Cl)cc1	5	3
COc1ccc(OCC(O)CN2CCC(=O)N(Cc3ccco3)Cc3ccccc32)cc1 (configuration not stated)	-1	9
Cc1ccc(C(NC(=O)C2CCN(CC(=O)C(C)(C)C)CC2)c2ccccn2)cc1 (configuration not stated)	-10	-1
CCOC(=O)c1sc(N)c(C#N)c1C	1&1	1&0
CCc1nc(N2CCN(C(=O)COc3ccc(Cl)cc3)CC2)c2c3c(sc2n1)CCCC3	-9	1
O=C1C(=O)N(CCCN2CCOCC2)C(c2ccccc2F)C1=C(O)c1ccc(Cl)cc1 (configuration not stated)	1	2
COc1cccc(C(=O)N(CCn2cccn2)c2nc3c(Cl)cccc3s2)c1OC	-17	-21
COc1ccc(OC)c(NC(=O)COc2cc(F)c(F)cc2F)c1	0	2
COc1ccc(C2c3[nH]c4ccccc4c3CCN2Cc2cnn(C)c2)c(F)c1 (configuration not stated)	-6	-7
Other records follow.
SMILES	NPYLR7 ag	NPYLR7 ag max-min
CC1(C(=O)NS(=O)(=O)c2ccccc2C(F)(F)F)CCN1C(=O)CC1CC1 (configuration not stated)	3	1
CCOC(=O)Cn1c(-c2ccccc2)cn2c3c(=O)n(C)c(=O)n(C)c3nc12	2	3
CCOC(=O)C1CCN(c2nc3nonc3nc2N(C)C)CC1	3	-1
COc1ccc(-c2cc(C(=O)N3CCN(C(c4ccccc4)c4ccccc4)CC3)n(-c3ccc(C)cc3C)n2)cc1	-2	0
CNc1cc(-c2cc(OC)c(OC)c(OC)c2)ncn1	-1	-1
CCOC(=O)N1CCN(Cc2nc3c(c(=O)n(C)c(=O)n3C)n2Cc2ccccc2Cl)CC1	11	8
O=C(CN1CN(c2ccccc2)C2(CCN(C(=O)c3cccs3)CC2)C1=O)Nc1cccc(Cl)c1	15	16
CC(C)CCn1c(CN(C)Cc2ccccc2)nc2c1c(=O)n(C)c(=O)n2C	-7	-8
O=C1Nc2ccccc2C1C=NN1CCOCC1 (configuration not stated)	51*	46*
COc1ccc(C(C2Sc3nc(C)nn3C2=O)N2CCC3(CC2)OCCO3)cc1 (configuration not stated)	10	4
COCCN(Cc1ccccc1F)CC(O)COCc1ccccc1 (configuration not stated)	0	0
Fc1ccccc1-c1cnnc(NCCCN2CCOCC2)n1	3	0
Cc1nccc(-c2ccccc2)c1C(=O)N1CCC(O)(C(=O)O)CC1	8	5
CC1=C(C)CC2C(C1)CC([n+]1ccccc1)C2I (configuration not stated)	0	0
Cc1ccc(S(=O)(=O)n2nc(C)c(S(=O)(=O)N3CCC(C)CC3)c2C)cc1	4	0
O=C(Cn1c2c(c(=O)n(C3CCCCC3)c1=O)CCC2)Nc1ccc2c(c1)OCCO2	-1	4
Cc1cccc(C)c1OC1CCN(C(=O)c2c(C)c(C)n[nH]c2=O)CC1	8	6
CCOC(=O)C1=C(CC)NC2=C(C(=O)CCC2)C1c1ccc(OC)cc1OC (configuration not stated)	-5	-11
Nc1ccc(Oc2c(F)c(F)c(Oc3ccc(N)c([N+](=O)[O-])c3)c(F)c2F)cc1[N+](=O)[O-]	-5	-9
CCCNC(=O)CSc1nnc2n1CCN2c1ccccc1	0	0
Cc1cc(C)cc(N2CCN(C(=O)C3CCOC3)CC2=O)c1 (configuration not stated)	8	4
CC(C)(C)c1nn2cnnc2n(/N=C\c2ccc(OCc3ccc(Cl)cc3)cc2)c1=O	3	-1
CC(=O)Nc1ccc(NC(=O)c2c3c(nn2C2CCS(=O)(=O)C2)CCC3)cc1 (configuration not stated)	12	8
COCC(=O)Nc1ccc(Oc2cc(Cl)c(Cl)cc2Cl)cc1	-2	-4
COc1ccc(NC(=O)CCCCl)cc1S(=O)(=O)N1CCOCC1	-3	-7
CCOCC(=O)N1CCN(C(=O)COCC)C2(CCCCC2)C1	2	2
COc1cc(Cl)cc(C(=O)N2CCCN(C)C3(CCN(C)CC3)C2)c1	8	4
Cc1ccc(C(=O)N=c2sc(C)c(C)n2Cc2ccc(C(=O)O)o2)cc1	24	13
Cc1ccc(CN(CCc2ccccc2)C(=O)CN(Cc2ccco2)C(=O)c2ccccc2F)o1	-7	-3
O=S(=O)(c1ccccc1)N1CCN(Cc2cccc(Cn3cccn3)c2)CC1	2	-1
CCN(CC)C(=O)Oc1ccc2c(ccn2Cc2ccccc2-c2ccccc2)c1-c1ccc(OC)c(OC)c1	10	4
CCCCCCn1ncc(O)c(Cl)c1=O	6	6
Cc1cc(Br)c(S(=O)(=O)NCc2ccc3c(c2)OCO3)cc1C	5	0
CCOCCCN(CC(=O)N(Cc1cccn1Cc1ccccc1)C1CCCCC1)S(=O)(=O)/C=C/c1ccccc1	-6	-5
Cc1nnc(SCc2ccc(C(=O)N3CCCC3)cc2)n1-c1cccc(Cl)c1	-1	6
O=C(NCc1ccccn1)c1csc(COc2ccccc2F)n1	-4	-3

Part of the list above in order of length of the SMILES, rising:
SMILES	NPYLR7 ag	NPYLR7 ag max-min
CCOCC(=O)N1CCN(C(=O)COCC)C2(CCCCC2)C1	2	2
COc1ccc(NC(=O)CCCCl)cc1S(=O)(=O)N1CCOCC1	-3	-7
Cc1cc(Br)c(S(=O)(=O)NCc2ccc3c(c2)OCO3)cc1C	5	0
CCOCCCN(CC(=O)N(Cc1cccn1Cc1ccccc1)C1CCCCC1)S(=O)(=O)/C=C/c1ccccc1	-6	-5

Next part:
SMILES	NPYLR7 ag	NPYLR7 ag max-min
Clc1ccc(N=C2SCC3CCCCN23)cc1 (configuration not stated)	4	0
Cc1sc2ncnc(N3Cc4cnc(CC(C)C)nc4C3)c2c1C	5	4
O=C(NCCCn1ccnc1)c1ccc(Cc2ccccc2)o1	-13	-22
CSc1nc(SCC(N)=O)c2sc3c(c2n1)COC(C)(C)C3	-15	-22
CC(=O)OCC1=C(C(=O)O)N2C(=O)C(NC(=O)Cc3ccccc3)C2SC1 (configuration not stated)	-16&-17	-30&-28
COCCn1c(SCC(=O)N2CCCc3ccccc32)nc2c(c1=O)SC(C)C2 (configuration not stated)	-1	-3
CSCCC(=O)N1CCN(Cc2cc(=O)c(OCc3ccccc3Cl)co2)CC1	1	-5
O=C(NCc1ccccn1)C1COC2(CCCCC2)N1C(=O)c1ccc(Cl)c(Cl)c1 (configuration not stated)	0	8
O=S1(=O)CCC(S(=O)(=O)Oc2cccc3cccnc23)CC1	-3	-3
Cc1nccnc1N1CCC(N2CCCC(C(=O)NCc3ccccn3)C2)CC1 (configuration not stated)	1	-11
O=C(NCc1ccc2c(c1)OCO2)c1cccnc1N1CCN(C(=O)c2ccco2)CC1	12	8
CCC(C)OC(=O)C1=C(C)NC2=C(C(=O)CC(c3ccc(OC)cc3)C2)C1c1ccc(O)cc1 (configuration not stated)	15	6
CC1(C(=O)N2Cc3ccccc3C2)CCN1C(=O)Cc1ccccc1 (configuration not stated)	11	12
COC(=O)c1cccc2c1OCCN2	2	831
O=C(c1ccccc1)N1CCN(c2ncnc3c2nnn3Cc2ccccc2)CC1	-10	-16
